ER stress rescue = rescue of cells from ER stress-induced death, primary screen, 384-well, CSM14.1, thapsigargin, ATP luminescence (AID 1222) | 190,000 tested, under 10 active | CSM14.1 thapsigargin-induced death rescue, ATP luminescence; higher % means a stronger effect | one-dose cellular ATP content (survival), % at 20 µM; EC50 in µM for titrated hits;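 active = EC50 below 50 µM in the dose-response confirmation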;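 also: death triggered by thapsigargin at about 15 µM added after 2 h compound pretreatment; cell ATP read after overnight thapsigargin exposure of roughly 18 to 22 hours; normalized against plate controls of thapsigargin alone and 5% DMSO vehicle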
Insulin prom up = insulin promoter activators in MIN6 cells, imaging, high-content screening, mouse beta cells; MIN6 insulin promoter-GFP reporter; stronger effect = higher value; z-score at 5 µM; 0.3% of 190,000 active;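 active = z-score above 3 at 5 µM with at least 500 cells counted in the well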
MT stabilizer = microtubule stabilizers in HeLa cells, primary screen, imaging, high-content imaging | HeLa tubulin immunostaining HCS, 24 h; share of cells brighter than vehicle mean+2SD | 0.83% of 200,000 active | AID 2205, 2009 | % tubulin-high responders, % at 10 µM;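 active = plate Z-score above 3 for both tubulin-high and condensed-nucleus cell shares, with cell loss under 80%, at 10 µM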;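 also: anti alpha tubulin signal scored within the nucleus-defined area of each cell; some results filed as inactive read as strong as hits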
Dynein cargo inh = inhibitors of GR-EGFP nuclear translocation, primary screen, dynein cargo transport inhibitor project, imaging, high-content, 3617.4 mouse cells | test concentration mostly 20 µM; stimulated with dexamethasone, 1 µM; stronger effect = lower value | z-score, hits read low | 0.47% of 220,000 active;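 active = plate z-score of nuclear minus cytoplasmic receptor signal below a set negative limit, without overly bright fluorescence or cell loss, cut at about -3.5 in these data, passing the limit was not always enough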;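 also: z-score of nuclear minus cytoplasmic ring GR-EGFP intensity difference per well; some compounds called inactive have numbers as strong as hits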
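Buffer or medium: tetracycline-free induction medium containing charcoal-stripped FBS / Reagent: dexamethasone agonist, 1.0 µM final, for 30 min / Technique: automated 10x imaging of fixed Hoechst-stained cells / Times: induction 48 h, compound 1 h, agonist 30 min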
P. falciparum M1AAP = P. falciparum M1AAP inhibitors, biochemical, fluorogenic H-Leu-NHMec substrate, 1536-well (AID 1445). Aminopeptidase N (Plasmodium falciparum (isolate 3D7)). recombinant M1AAP, H-Leu-NHMec fluorogenic kinetic assay; higher % means a stronger effect. inhibition, % at 30 µM, or IC50 in µM where a hit was titrated. 0.42% of 220,000 active;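 active = primary inhibition above the hit cutoff, then over 50% inhibition at one or more dose response concentrations, cut at about 23% in these data, passing the limit was not always enough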;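 also: plate controls were DMSO full reaction for no effect and no enzyme background for full effect; strong numbers were not always called active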
UTI89 phage lysis = inhibition of K1F phage lysis, E. coli UTI89, bacterial capsule biogenesis inhibitors, alamar blue (AID 488966); E. coli UTI89 K1F phage lysis, alamar blue, 2 h; higher % means a stronger effect; inhibition, % at 100 µM, or IC50 in µM where a hit was titrated; 0.02% of 340,000 active;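 active = phage lysis inhibition, versus mean bacterial control, above a set limit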;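 also: capsule biogenesis inhibitors block K1F phage lysis so surviving cells raise fluorescence; higher fluorescence means more inhibition of phage lysis; actives were called in the ten point dose series up to 300 µM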
Autophagy HCS = autophagy modulators in MEF cells, primary screen, imaging, high-content, MEF GFP-LC3; MEF GFP-LC3 puncta imaging; test concentration mostly 10 µM; calls only at 10 µM (by protocol); 0.98% of 190,000 active;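 active = percentage of spot-positive cells more than 3 SD above its plate mean, without a fluorescence outlier flag or 80% toxicity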;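 also: spot-positive cell cutoff set from DMSO-treated cells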
P. falciparum M17LAP = P. falciparum M17LAP inhibitors, primary screen, biochemical, fluorogenic H-Leu-NHMec substrate, 1536-well (AID 1619); recombinant M17LAP, H-Leu-NHMec fluorogenic kinetic assay; higher % means a stronger effect; 0.38% of 220,000 active; inhibition, % at 30 µM, or IC50 in µM where a hit was titrated; Leucine aminopeptidase (Plasmodium falciparum (isolate 3D7));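 active = compound inhibiting the enzyme by more than half at any dose during confirmatory dose-response retesting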;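 also: plate controls were full reaction with DMSO carrier for no effect and no enzyme background for full effect; strong numbers were not always called active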
Dynein cargo inh cytoplasmic EGFP = recorded beside Dynein cargo inh, whose call it bears; z-score; measured here: cytoplasmic GR-EGFP intensity; stronger effect = higher value
Dynein cargo inh nuclear GR-EGFP = recorded beside Dynein cargo inh, whose call it bears; z-score; measured here: nuclear GR-EGFP intensity;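 lower value marks the stronger effect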
Dynein cargo inh cell count = recorded beside Dynein cargo inh, whose call it bears; z-score; measured here: cell count per field
Insulin prom up cell count = second read-out of Insulin prom up, no call of its own (marks repeat the call); cell count; measured here: cytotoxicity, nuclei count;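 total cells summed across four imaged fields per well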
MT stabilizer Hoechst-high % = recorded beside MT stabilizer, whose call it bears; % Hoechst-high responders; measured here: nuclear condensation Hoechst responders;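 share of cells brighter than vehicle mean plus two SD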
MT stabilizer cytotoxicity % = further read-out of MT stabilizer, marked with its call; toxicity, %; measured here: cytotoxicity by cell density;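 0% = mean cell density of plate MIN control wells and 100% = no cells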
Autophagy HCS cell loss 18 h = second read-out of Autophagy HCS, no call of its own (marks repeat the call); toxicity, %; measured here: cell loss, nuclei count;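 cell loss after 18 h compound exposure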
* = called active by the depositor; i = inactive; . = no result given. The list is partial; rates above refer to the full screens.

SMILES | ER stress rescue | Insulin prom up | Insulin prom up cell count | MT stabilizer | MT stabilizer Hoechst-high % | MT stabilizer cytotoxicity % | Dynein cargo inh | Dynein cargo inh cytoplasmic EGFP | Dynein cargo inh nuclear GR-EGFP | Dynein cargo inh cell count | P. falciparum M1AAP | UTI89 phage lysis | Autophagy HCS | Autophagy HCS cell loss 18 h | P. falciparum M17LAP
CCCCN1C(=O)CC(Sc2ccccc2C(=O)O)C1=O (stereo not drawn) | -0.9% | 0.31 | 1529 | 2.4 | 1.4 | 3.2 | -3.5 | 0.17 | -1.5 | 0.7 | -3% | 1.2% | i | 4 | -7%
COc1cc(/C=N/NC(=O)c2cncc(Br)c2)ccc1OC(=O)c1ccc2c(c1)OCO2 | -1.2% | 0.35 | 1359 | 2.3 | 1.7 | 4.3 | 0.089 | -0.23 | 0.64 | 0.19 | 9% | . | i | -1 | 1%
CC(C)NS(=O)(=O)c1ccc(NC(=S)NC(=O)c2ccc(-c3ccccc3)cc2)cc1 | -1.1% | -0.48 | 910 | 3.6 | 7.2 | 6.0 | -0.28 | 0.072 | -0.33 | 0.99 | 10% | 0.5% | i | -10 | 3%
N#CC1=C(N)OC2=C(C(=O)CC(c3ccco3)C2)C1c1ccc(OCc2c(F)cccc2Cl)cc1 (stereo not drawn) | -1.0% | 0.84 | 1363 | 3.1 | 2.0 | 2.5 | -0.8 | -0.076 | -0.16 | 0.31 | 6% | -0.8% | i | -3 | 9%
CCCCOc1ncnc2c1[nH]c1ccc(OC)cc12 | -2.3% | -1.8 | 909 | 7.3 | 2.1 | 4.3 | 1.6 | -0.059 | 0.85 | -0.83 | 2% | . | i | -3 | -1%
COc1ccc(C(=S)N(C)C)cc1OC | -1.5% | -0.48 | 1713 | 2.0 | 1.9 | 10 | -0.5 | -0.18 | -0.25 | 0.71 | 0% | 0.9% | i | -1 | -1%
Cc1cc(C(=O)CSc2nnc(-c3ccc(Cl)cc3)n2C)c(C)n1CC1CCCO1 (stereo not drawn) | 0.8% | -0.23 | 1475 | 3.3 | 1.8 | 5.0 | -0.95 | -0.16 | -1.2 | 1.2 | 8% | 0.4% | i | 6 | 6%
Cc1ccc(C(=O)NCC(=O)NCC(=O)OCC(=O)c2ccc([N+](=O)[O-])cc2)cc1 | 0.9% | 0 | 1608 | 0.9 | 1.7 | 8.6 | -0.98 | -0.22 | -0.55 | 1.1 | -10% | -0.1% | i | 8 | 4%
C1CCN(c2nc3nonc3nc2N2CCCC2)C1 | -0.6% | 0.12 | 1618 | 1.1 | 2.3 | 12 | 0.018 | -0.15 | 0.047 | 0.004 | 14% | 0.2% | i | -2 | 17%
O=C(CSc1nccn1-c1ncc(C(F)(F)F)cc1Cl)c1ccc(Cl)cc1 | 0.7% | -0.15 | 1630 | 1.8 | 0.9 | 9.5 | 1.2 | 0.094 | 0.98 | -1.2 | 4% | -0.3% | i | 16 | 7%
Cc1ccc(-c2cc(C(=O)N3CCN(c4ccc(F)cc4)CC3)c3ccccc3n2)o1 | -2.6% | -2 | 1150 | 1.8 | 4.3 | 12 | 0.4 | -0.21 | 0.72 | -0.011 | -6% | 11% | i | 21 | -5%
Cc1ccc(C(=O)c2ccccc2C(=O)O)s1 | -0.4% | -0.22 | 1584 | 3.3 | 1.6 | 0.9 | 0.61 | -0.22 | -0.67 | -0.26 | -4% | 2.2% | i | 5 | -22%
CCOC(=O)c1[nH]c(C)c(C(=O)N2CCc3ccccc32)c1C | 1.0% | -1 | 937 | 29* | 43* | 67* | 0.86 | -0.17 | 1.1 | -1.2 | 0% | 0.3% | i | 34 | 0%
O=C(O)C1C2C=CC(O2)C1C(=O)NC1CCCc2ccccc21 (stereo not drawn) | -8.5% | 1.9 | 1210 | 5.7 | 5.3 | 3.9 | 0.57 | -0.24 | 0.39 | -0.89 | 2% | 0.2% | i | 15 | 5%
Cc1ccc2c(c1)SC1=NC(c3ccccc3)(C(F)(F)F)NC(=O)N12 (stereo not drawn) | 4.1% | -0.05 | 1601 | 2.7 | 1.7 | 4.6 | 0.11 | -0.18 | -0.35 | 0.71 | 3% | . | i | -9 | -6%
Cc1ccc(C(=O)N2CCN(C3c4cccc5cccc(c45)C3NS(=O)(=O)c3ccccc3)CC2)cc1 (stereo not drawn) | -0.3% | 0.02 | 1428 | 3.0 | 1.7 | 9.7 | -0.35 | -0.16 | -0.87 | 0.72 | 1% | 2.8% | i | -3 | -3%
O=C1CC(c2ccc(F)cc2)Cc2nc(NCC3CCCO3)ncc21 (stereo not drawn) | -0.8% | -0.01 | 1493 | 2.3 | 1.2 | 9.7 | -0.051 | -0.13 | -0.65 | -1.1 | 5% | 0.6% | i | 0 | 2%
Cc1ccc2nc(CSc3nc(C)cc(C)c3C#N)[nH]c2c1 | -1.8% | -0.15 | 1601 | 3.1 | 1.9 | 6.7 | -0.057 | -0.21 | 0.51 | 0.6 | -8% | 2.5% | i | 5 | 2%
CCN(CC)C(=O)COc1ccc(S(=O)(=O)N2CCOCC2)cc1 | -1.5% | 0.99 | 1485 | 3.2 | 1.4 | 4.1 | -0.65 | -0.34 | -0.14 | 0.75 | 4% | 2.1% | i | -3 | 7%
CCc1ccc(Cn2nnc(C(=O)NCc3ccccc3OC)c2N)cc1 | 0.0% | 1.5 | 951 | 1.4 | 3.4 | 12 | 1.5 | -0.068 | 1.2 | -0.53 | 0% | 5.2% | i | 2 | 5%

Individual results from above.
Cc1ccc2nc(CSc3nc(C)cc(C)c3C#N)[nH]c2c1 @ P. falciparum M1AAP: -8%
CCc1ccc(Cn2nnc(C(=O)NCc3ccccc3OC)c2N)cc1 @ Dynein cargo inh: 1.5
O=C(O)C1C2C=CC(O2)C1C(=O)NC1CCCc2ccccc21 (stereo not drawn) @ Dynein cargo inh: 0.57
Cc1ccc(C(=O)c2ccccc2C(=O)O)s1 @ UTI89 phage lysis: 2.2%

Molecules from the list above that contain a CF3 group (2):
SMILES | ER stress rescue | Insulin prom up | Insulin prom up cell count | MT stabilizer | MT stabilizer Hoechst-high % | MT stabilizer cytotoxicity % | Dynein cargo inh | Dynein cargo inh cytoplasmic EGFP | Dynein cargo inh nuclear GR-EGFP | Dynein cargo inh cell count | P. falciparum M1AAP | UTI89 phage lysis | Autophagy HCS | Autophagy HCS cell loss 18 h | P. falciparum M17LAP
O=C(CSc1nccn1-c1ncc(C(F)(F)F)cc1Cl)c1ccc(Cl)cc1 | 0.7% | -0.15 | 1630 | 1.8 | 0.9 | 9.5 | 1.2 | 0.094 | 0.98 | -1.2 | 4% | -0.3% | i | 16 | 7%
Cc1ccc2c(c1)SC1=NC(c3ccccc3)(C(F)(F)F)NC(=O)N12 (stereo not drawn) | 4.1% | -0.05 | 1601 | 2.7 | 1.7 | 4.6 | 0.11 | -0.18 | -0.35 | 0.71 | 3% | . | i | -9 | -6%

Next entries:
SMILES | ER stress rescue | Insulin prom up | Insulin prom up cell count | MT stabilizer | MT stabilizer Hoechst-high % | MT stabilizer cytotoxicity % | Dynein cargo inh | Dynein cargo inh cytoplasmic EGFP | Dynein cargo inh nuclear GR-EGFP | Dynein cargo inh cell count | P. falciparum M1AAP | UTI89 phage lysis | Autophagy HCS | Autophagy HCS cell loss 18 h | P. falciparum M17LAP
Cc1nc2sc3c(c2c(=N)n1N)CC(C)(C)OC3 | -0.4% | -0.53 | 1645 | 1.8 | 0.7 | 2.3 | 2.9 | 0.077 | 1.8 | -2.7 | 3% | 4.8% | i | -7 | -22%
COc1cc(Nc2nc(-c3ccccc3)c3cc(C)ccc3n2)cc(OC)c1OC | 0.2% | -1.5 | 1505 | 2.4 | 1.0 | 4.6 | 1.2 | -0.38 | 0.48 | -0.33 | 8% | 0.0% | i | 13 | -7%
Brc1ccc(N=C/C=C/C=C/Nc2ccc(Br)cc2)cc1 | 0.0% | -0.15 | 1662 | 2.7 | 1.5 | 8.5 | 1.6 | 0.17 | 1 | -0.86 | 5% | 0.3% | i | -2 | 17%
COc1ccc(S(=O)(=O)N2CCN(CC(=O)Nc3cc(C(F)(F)F)ccc3Cl)CC2)cc1 | 0.8% | -0.75 | 1605 | 2.0 | 1.6 | 4.3 | -0.093 | -0.18 | -0.23 | -0.017 | 2% | 0.5% | i | 1 | -5%
Cc1ccc(OCC(=O)Nc2ccccc2N2CCOCC2)c(C)c1 | 13% | 2.3 | 1476 | 3.1 | 1.9 | 3.2 | 0.86 | -0.16 | 0.26 | -0.91 | -3% | 1.5% | i | -10 | -6%
CC(C)COC(=O)Nc1nnc(SCCOc2ccccc2)s1 | -0.6% | 0.94 | 1561 | 1.7 | 2.1 | 5.8 | -0.47 | -0.16 | -0.63 | 0.68 | 17% | 0.2% | i | 0 | -14%
O=S(=O)(c1cc(-c2nc3ccccc3s2)ccc1Cl)N1CCOCC1 | -1.2% | 0.13 | 1511 | 1.2 | 1.4 | 7.0 | -0.26 | -0.031 | -0.13 | 0.33 | 12% | . | i | 0 | 6%
Cc1ccccc1NC(=O)N1C2CCC1CC(O)(c1cccnc1)C2 (stereo not drawn) | -1.1% | -0.16 | 1706 | 2.1 | 1.5 | 6.2 | -0.61 | -0.24 | -0.94 | 0.65 | 2% | 0.0% | i | -5 | -10%
CC(=O)Nc1ccc(-c2cn3cccnc3n2)cc1 | -1.4% | -0.36 | 1497 | 3.5 | 4.3 | 7.9 | 2 | -0.25 | 0.64 | -0.02 | 7% | -1.3% | i | -8 | -351%
COc1c(F)c(F)c(C(=O)O)c(Nc2ccccc2C)c1F | -0.6% | 0.11 | 1586 | 1.0 | 1.4 | 6.2 | -0.38 | -0.14 | -0.27 | 0.56 | -1% | -0.8% | i | 2 | -262%
CCOC(=O)NC(CC(=O)O)c1ccc(OCC)cc1 (stereo not drawn) | -1.6% | -0.2 | 1624 | 6.4 | 3.9 | 3.2 | -0.87 | -0.23 | -0.31 | 0.83 | 10% | 3.5% | i | 8 | -6%

Screening data deposited in PubChem BioAssay by several laboratories.
